# gsp ag: qHTS for Agonist of gsp, the Etiologic Mutation Responsible for Fibrous Dysplasia/McCune-Albright Syndrome: qHTS; gsp mutant cells, cAMP HTRF, 30 min; control for the full effect not named in the record; Potency, µM (series often up to 76.9 µM), without a hit: at the top dose activation (cAMP increase), usual class: activators; 340,000 tested, 0.13% active; AID 624287, 2012; active = well fitted activation curve with a large enough effect; inconclusive = small, poorly fitted or top-dose-only effect, or another doubt; inactive = no such curve, though single readings can be large or run the other way; cell line not stated here;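 also: phosphodiesterase inhibitor Ro 20-1724 added with compounds to block cAMP breakdown; potency is read from the fitted curve at half-maximal effect; nearly all actives have a fitted effect of over 60% in size; about a fifth of the inactives were tested at one dose only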
#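 Cells stably selected in G418 were plated at 2000/well, grown 16-24 hr, then given compounds in DMSO with the PDE inhibitor […] (300 uM solution added) for 30 min at 37C; cAMP was read by HTRF.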
# TRPML1 ag: qHTS for Agonists of the Human Mucolipin Transient Receptor Potential 1 (TRPML1); TRPML1-expressing cells, Ca2+ dye fluorescence, FDSS; host cell line not named in the record; reference of the full effect not given here; 410,000 tested, 0.12% active; activation, % (no concentration beside the values); in the data active = activation above about 50%; inconclusive = about 30% to 50%; inactive = below about 30%; also: 0% is about no effect; the text of the record puts the active cut at 80%
# Target sequence (Q9GZU1 whole entry, looked up): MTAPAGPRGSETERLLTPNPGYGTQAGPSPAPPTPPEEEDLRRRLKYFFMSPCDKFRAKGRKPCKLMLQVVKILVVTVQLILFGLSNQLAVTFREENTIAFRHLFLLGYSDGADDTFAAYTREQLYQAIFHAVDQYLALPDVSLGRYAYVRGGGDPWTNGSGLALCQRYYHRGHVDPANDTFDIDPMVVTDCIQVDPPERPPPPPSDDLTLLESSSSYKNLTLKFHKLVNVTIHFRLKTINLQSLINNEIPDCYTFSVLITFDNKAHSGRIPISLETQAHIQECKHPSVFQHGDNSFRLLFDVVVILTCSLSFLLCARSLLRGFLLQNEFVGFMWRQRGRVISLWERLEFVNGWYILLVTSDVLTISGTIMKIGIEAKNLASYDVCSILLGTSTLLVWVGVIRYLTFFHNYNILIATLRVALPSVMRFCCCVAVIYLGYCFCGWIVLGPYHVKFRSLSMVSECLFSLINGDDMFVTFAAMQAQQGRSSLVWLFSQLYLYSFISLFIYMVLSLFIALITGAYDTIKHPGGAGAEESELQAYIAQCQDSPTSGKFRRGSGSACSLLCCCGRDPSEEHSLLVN
#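 Tet-induced TRPML1-DL cells, 1,500 per well, cultured overnight, were loaded with a no-wash Ca2+ dye for 45–90 min. Calcium fluorescence was recorded on the FDSS for 110 s after compound addition, before the EC80 agonist (4 uM 54-4) was added.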
# TRPML1 blocker: qHTS for Inhibitors of the Human Mucolipin Transient Receptor Potential 1 (TRPML1). activity change, negative = inhibition, % (concentration not given with the values). Mucolipin-1 (Homo sapiens), Q9GZU1. AID 624415, 2012. TRPML1-inducible cells, Ca2+ dye fluorescence, FDSS; active compounds read low; inhibition of EC80 agonist-evoked calcium signal. 390,000 tested, 0.02% active; in the data active means activity change below about -50%; inconclusive means about -30% to -50%; inactive means above about -30%;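 also: stimulus is agonist 54-4 at its EC80 concentration; % is scaled to controls: 0 for no effect and ±100 for the full control effect; the text of the record puts the active cut at -80%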
#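 Calcium fluorescence in TRPML1-DL cells induced overnight with Tet: a 110 s read after compound pin addition, then a 110 s antagonist read after challenge with 54-4 at 4 uM final (EC80).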
# gsp antagonist: qHTS for Antagonists of gsp, the Etiologic Mutation Responsible for Fibrous Dysplasia/McCune-Albright Syndrome: qHTS; Potency, µM (titrated, usually from 76.9 µM), for inactives: top-dose activity change, negative = inhibition, most hits filed as inhibitors; AID 624288, 2012; gsp-mutant cells, cAMP HTRF, 30 min; control for the full effect not named in the record; 340,000 tested, 0.4% active; active = falling curve of any shape with a large fitted effect; inconclusive = falling curve, mostly with a smaller effect; inactive = flat or rising curve; cell line not stated here;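 also: intracellular cAMP measured with PDE inhibitor Ro 20-1724 present during compound exposure; potency is read from the fitted curve at half-maximal effect; % is scaled to controls: 0 for no effect and ±100 for the full control effect; nearly all actives have a fitted effect of over 65% in size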
#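 Cells, 2000/well, grown 16–24 h in DMEM 10% FBS with 0.5 mg/ml G418, then compounds plus […] (300 uM addition stock), 30 min at 37C. cAMP read by HTRF (cAMP-d2 and anti-cAMP antibody-K in lysis buffer) after 30 min RT.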
# ClpP mod: qHTS Assay for Activators of ClpP | purified B. subtilis ClpP, FRET peptide cleavage, 20 min | AID 651965, 2013 | Potency, µM (titrated, usually from 57.5 µM), inactives show at the highest dose activity change, negative = active | 340,000 tested, 1.9% active | ATP-dependent Clp protease proteolytic subunit (Bacillus subtilis (strain 168)), P80244; active = well fitted falling curve with a large enough effect; inconclusive = small, poorly fitted or top-dose-only effect; inactive = no such curve, though single readings can be large or run the other way; also: potency is read from the fitted curve at half-maximal effect; the source files actives as falling curves though it sought activators and does not explain the sign; nearly all actives have a fitted effect of over 65% in size; many hits overshoot -100%
# Target sequence (P80244 whole entry, looked up): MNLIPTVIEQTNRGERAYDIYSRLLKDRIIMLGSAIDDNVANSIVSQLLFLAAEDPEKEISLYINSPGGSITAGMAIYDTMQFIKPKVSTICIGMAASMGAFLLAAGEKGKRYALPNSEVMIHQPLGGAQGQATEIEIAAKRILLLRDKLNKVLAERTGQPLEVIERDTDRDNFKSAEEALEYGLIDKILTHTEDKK
#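 ClpP 10 microg/mL final, pH 8 Tris/KCl buffer with BSA, glycerol, Tween-20; compound pinned in; FRET-FV substrate; RT 20 min; Ex320/Em430; ΔFRET vs ADEP 5.8 microM, DMSO, no enzyme.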
# Menin MLL FP FL: qHTS Assay for Inhibitors Targeting the Menin-MLL Interaction in MLL Related Leukemias: Competition With Fluorescein Labeled MLL-derived Peptide | Fluorescence polarization, fluorescein-MLL peptide displacement from menin | FP activity change, % at 61.4 µM | 290,000 tested, under 10 active | AID 1766, 2009; inconclusive = falling polarisation curve, or a change in total fluorescence; inactive = total fluorescence flat and polarisation flat or rising; no compound was filed as active; the % refers to the polarisation; negative = inhibition;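 also: % of control where 0% means no effect; inhibitors lower the polarisation; unlabelled MLL peptide was the positive control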
# Active calls of the source: *; ? = inconclusive; . = no result given; & = joins results of further samples; [ ] = another dose, or the depositor's remark.
SMILES,gsp ag,TRPML1 ag,TRPML1 blocker,gsp antagonist,ClpP mod,Menin MLL FP FL
C#CC(=O)CCC1CCCN1C(=O)OC(C)(C)C (stereo not drawn),.,-0.1,9.2,-13.4%,0.8%,.
CCOC(=O)C1CCN(C(=O)c2cccs2)CC1,-5.0%,-0.3,4.4,-4.5%,-1.6%,0.8
O=C(Nc1ccc(NC(=O)c2ccccn2)cc1)C(=O)Nc1ccc2c(c1)OCCO2,-20.0%,-0.9,14.3,13.8%,0.0%,-1.3
CNc1oc(-c2cccs2)nc1S(=O)(=O)c1ccccc1,0.8%[15.4 µM],-0.6,4.6,-45.1%,.,1.3
Cc1ccc(CN2CCSc3ccc(C(=O)NCc4ccccn4)cc32)cc1,-7.6%,1.5,6.5,-20.7%,3.8%,9.4
COc1ccc(-n2cnc3cc(NCc4cccs4)ccc32)cc1,-41.1%[inhibitor],-0.1,-8.5,-24.5%,?,4.5
NC1=NC(c2ccc(Br)cc2)n2c(nc3ccccc32)N1 (stereo not drawn),16.3%&4.5%,-0.4&0.0,19.2&16.6,10.5%&8.5%,1.2%,3.9
CC(CCc1ccco1)NC(=O)Nc1cccc(F)c1 (stereo not drawn),-46.4%,-0.2,-28.3,-22.9%,-0.9%,2.2
Cc1cccc(CSCCNC(=O)CN(c2ccccc2)S(=O)(=O)N(C)C)c1,.,2.1,14.3,.,-24.8%,.
c1ccc(-c2nn3c(Cn4cnc5ccccc54)nnc3s2)cc1,?,0.3,3.3,-1.0%,-1.3%,2.8
O=C(NCCN1CCOCC1)c1cc(-c2ccc(Cl)cc2Cl)on1,-1.0%[15.4 µM],0.6,-18.9,1.3%,.,-1.6
CCOc1ccc(NC2=CC(=O)CC(c3ccco3)C2)cc1 (stereo not drawn),5.0%,0.7,-19.2,-5.2%,0.1%,0.2
Nc1nc(SCC(=O)c2cc(F)ccc2F)n[nH]1,-2.1%,1.6,-1.9,10.8%,1.4%,7.3
CCC(CC)NC(=O)c1ccccc1Oc1ccccc1,-49.5%[inhibitor],2.2,-2.6,-6.9%,1.1%,-0.7
CCn1c(CNC(=O)c2ccccc2)nc2ccccc21,-1.0%,-0.1,-7.0,1.6%,0.3%,.
Cc1cc(C(=O)N2CCCC(N3CCN(c4cccc(C(F)(F)F)c4)CC3)C2)nn1C (stereo not drawn),22.6%,-0.8,-7.5,0.2%,-0.6%,.
Cc1cc(NC(=O)CSc2nc3ccccc3n2CC(=O)N2CCCCC2)no1,-55.1%[inhibitor],0.4,-4.5,-5.1%,-0.8%,-3.6
CCC(C)NC(=O)NC(=O)N(C1CCCCC1)S(C)(=O)=O (stereo not drawn),5.1%,-0.6,2.0,0.7%,2.9%,-2.4
CC(c1ccco1)N(C(=O)c1ccccc1NS(=O)(=O)c1ccc(Cl)cc1)c1ccccn1 (stereo not drawn),?,-0.3,-1.3,-5.8%,-8.0%,-1.0
Cc1ccc(S(=O)(=O)N(CC(=O)N=Nc2c(O)[nH]c3ccccc23)c2ccc(C)c(C)c2)cc1,-49.6%[inhibitor],3.3,1.7,-10.5%,-1.8%,.
COc1ccc(-c2noc(CSc3nnc(Cc4ccccc4)n3-c3cccc(C)c3)n2)cc1OC,-0.2%,0.6,12.6,-15.0%,0.4%,-0.5
CCN(CC(=O)Nc1ccc(NC(C)=O)cc1)C(=O)Cc1ccc(S(=O)(=O)N2CCOCC2)s1,4.0%,-0.2,-2.1,11.2%,1.5%,.
CCOC(=O)c1c(C)n(C)c2ccc(OC)c(NC(=O)CN3CCC(C(=O)OCC)CC3)c12,-9.6%,-0.7,-8.0,-1.5%,-2.3%,1.0
O=C(NCC1(c2ccccc2)CCCC1)C(=O)Nc1cccc(C(F)(F)F)c1,.,0.2,-24.2,.,1.1%,.
Cc1cccc(-c2nc3ccccc3c(=O)n2N)c1,-0.5%,1.4,-10.3,1.4%,-6.1%,-0.3
CCn1nc(C(=O)NNC(=O)C2CSC3(C)CCC(=O)N23)c2ccccc2c1=O (stereo not drawn),20.8%,-0.8,24.8,10.1%,-0.3%,.
CCC(=O)NCCc1nc2cc(NC(=O)COc3ccccc3)ccc2n1C,4.7%[15.4 µM],1.3,-12.3,5.3%,.,-1.0
CCOC(=O)c1cccc(C(=O)Oc2ccccc2)n1,0.0%,0.4,-2.8,-3.3%,0.0%,3.3
CN1CCC(N(C)C(=O)/C=C/c2cn(-c3ccccc3)nc2-c2cccs2)CC1,5.9%[15.4 µM],0.7,-2.3,.,.,-0.7
CCCCCCCCCCS(=O)(=O)N/N=C/c1ccccc1OC,-1.1%,-0.7,4.9,6.1%,-5.7%,1.1
CN(C)c1ccc(C2N(c3ccc(Cl)cc3)C(=O)C3CCCN32)cc1 (stereo not drawn),2.5%,0.8,40.1,5.2%,-5.9%,4.6
CNC(=O)c1c[nH]c2ccc(S(=O)(=O)Nc3cccc(SC)c3)cc2c1=O,-20.2%,.,.,-6.6%,-4.2%,-7.0
O=C(CN1CCN(CC(=O)c2ccc(F)cc2)CC1)Nc1ccccc1Cl,-29.6%,-0.5,9.5,0.2%,1.3%,11.1
O=C(N/N=C\C=C\c1ccco1)c1cncc(Br)c1,9.2%,-0.3,-4.0,-7.9%,.,?
COc1cccc(CNC(=O)CCC(=O)N2CCSc3ccccc32)c1OC,-1.4%,0.1,1.0,3.9%,-0.4%,-5.7
O=[N+]([O-])c1cc(Cl)ccc1NCCc1ccccn1,-14.7%,1.7,-9.9,-1.4%,.,5.0
O=C(Nc1ccc(Nc2ccccc2)cc1)C(Cl)(Cl)Cl,4.0%,1.6,12.0,-10.4%,-0.8%,-5.1
O=C(c1ccccc1Cl)N(Cc1ccc(Br)cc1)N1C(=O)CCC1=O,1.4%,-0.5,34.5,-7.9%,1.6%,-4.3
COC(=O)Cc1nc2c(N)nc(N)nc2[nH]c1=O,20.7%,1.0,21.9,-0.6%,.,.
Clc1ccc(N2CCN(Cc3nnc(-c4ccc5c(c4)OCO5)o3)CC2)cc1,.,-0.3,-0.7,.,-11.3%,.
COc1cccc(-c2sc3ccc(OC)cc3c2-c2ccc(O)cc2)c1,.,0.0,-5.1,-1.5%,28.2µM*,.
CCOc1cc2sc(N3CCC(C(=O)Nc4ccc(C)cc4C)CC3)nc2cc1Br,.,-0.2,-1.6,.,1.3%,.
CC(Oc1ccccc1)C(=O)OCC(=O)NC(=O)NCc1ccco1 (stereo not drawn),-25.5%,-0.2,0.2,-5.1%,-1.2%,-1.5
Cc1ccc2nc(-c3ccccn3)c(NC3CCCC3)n2c1,6.0%,1.9,-6.2,-23.1%,.,-6.1
Cc1cc(C(=O)OCC(=O)N2CC(=O)Nc3ccccc32)c(C)n1-c1ccc(F)cc1,-26.7%,2.5,67.1,2.4%,0.5%,6.8
Cc1ccc(-c2noc(CN(C(=O)CCCN3C(=O)c4ccccc4C3=O)C(C)C)n2)cc1,-2.2%,0.4,-2.9,-17.6%,1.9%,.
COCC1CCN(C(=O)CCc2nnc(C3(c4ccc(Cl)cc4)CCC3)o2)CC1,7.1%,1.5,-4.8,0.1%,-2.0%,0.4
COc1ccc(Br)cc1CN1CCN(S(=O)(=O)Cc2ccccc2)CC1,-19.4%,1.2,18.1,0.7%,-3.4%,.
Cc1cn(C(=O)c2ccccc2)c(=S)n1-c1ccc(Br)cc1,-44.8%[inhibitor],2.3,-6.1,-14.4%,?,1.5
O=C(CN1C(=O)NC(CCc2ccccc2)C1=O)Nc1cccc(Br)c1 (stereo not drawn),4.7%,0.2,-10.3,7.1%,-0.6%,.
CC(C)C[C@@]12C(=O)N(c3cccc(Cl)c3)C(=O)N1[C@H](c1ccc(F)cc1)[C@@H]1C(=O)N(C3CCCCC3)C(=O)[C@@H]12,16.1%,-0.5,11.5,-3.3%,-0.8%,.
Cc1nc(NC(=O)c2cccs2)ccc1Br,-15.9%[15.4 µM],0.4,0.1,-0.8%,.,0.0
Cc1cc(C(=O)NCC(=O)OCC(=O)N(C2CCCCC2)C2CCCCC2)ccc1[N+](=O)[O-],-33.5%[inhibitor],1.0,-12.0,?,0.2%,5.9
COC(=O)c1sccc1NC(=O)CC1C(=O)NCCN1C(=O)c1ccc(N(C)C)cc1 (stereo not drawn),17.8%[15.4 µM],0.0,2.8,9.1%,-0.4%,-0.6
O=C(Cn1cc(SCc2cccc(Cl)c2)c2ccccc21)N1CCOCC1,0.5%,0.0&-0.2,-7.5&-2.6,-8.6%,1.1%&0.4%,4.5
Cc1cc(C)cc(C(=O)N2CCC(CCC(=O)NC3CC3)CC2)c1,-46.2%[inhibitor],-0.2,1.5,-13.8%,-1.8%,.
CC/C(=C\c1oc2cc3ccccc3cc2[n+]1CC)Nc1ccccc1,-14.5%[15.4 µM],3.7,-4.6,.,.,0.4
CCOC(=O)Cc1ccc2sc(-c3ccccc3)nc2c1,-2.9%,5.0,?,-11.9%,-15.9%,6.6
CC(C)(C)C1CCc2onc(C(=O)Nc3ccc(F)cc3F)c2C1 (stereo not drawn),8.9%,-0.2,43.3,-3.3%,0.6%,4.6
COc1ccc(CCNC(=O)C2CCN(S(=O)(=O)N3CC(C)CC(C)C3)CC2)cc1OC (stereo not drawn),-5.8%,-0.6,17.5,-15.7%,1.1%,-0.9

# Remaining list, next part
SMILES,gsp ag,TRPML1 ag,TRPML1 blocker,gsp antagonist,ClpP mod,Menin MLL FP FL
COc1cc2c(cc1NC(=O)C(c1ccccc1)c1ccccc1)CCCC2,-18.5%,3.8,-17.5,-1.7%,1.2%,1.6
COc1ccc(CNS(=O)(=O)c2cnc(N)nc2)cc1,.,0.7,9.8,.,0.2%,.
CCOc1ccc(NC(=O)CN2C(=O)NC(CCSC)C2=O)cc1 (stereo not drawn),3.3%,-0.5,-0.3,8.1%,.,-0.9
Cc1ccc(S(=O)(=O)NCC(C)n2cncn2)cc1C (stereo not drawn),0.5%,-0.3,12.9,9.0%,.,-3.5
Cn1c(=O)c2c(SCc3ccccn3)nc(CC(C)(C)C)nc2n(C)c1=O,-30.2%[inhibitor],2.3,22.0,?,1.4%,5.0
COC(=O)c1ccc(N2C(=O)CC(N(C)Cc3ccccc3)C2=O)cc1 (stereo not drawn),?,-1.2,-4.0,2.1%,0.0%,0.2
O=C(COC(=O)c1cccc([N+](=O)[O-])c1)NC1CCCC1,-14.7%,0.1,24.3,8.4%,0.0%,-5.6
CC(=O)NC(c1ccc(Cl)cc1)c1ccc2cccnc2c1O (stereo not drawn),?,1.9,10.5,4.4%,-0.6%,.

# Rows are unselected; overall some 2.1% were active at least once.
